# Source: PubChem (National Center for Advancing Translational Sciences (NCATS))
# Vaccinia Venus = qHTS for Stage-Specific Inhibitors of Vaccinia Orthopoxvirus: Venus Reporter Primary qHTS | Potency, µM (doses to about 36.5 µM), without a hit: at the top dose activity change, negative = inhibition, actives largely listed as inhibitors | actives 0.46% (n = 330,000) | Vaccinia virus Venus reporter expression, fluorescence | AID 720580, 2013; active means well fitted inhibition curve with a large enough effect; inconclusive means small, poorly fitted or top-dose-only effect; inactive means no such curve, though single readings can be large or run the other way; tested in A549 cells; also: nearly all actives have a fitted effect of over 30% in size; inactives centre near -10
# VACV mCherry inh = qHTS for Stage-Specific Inhibitors of Vaccinia Orthopoxvirus: mCherry Reporter Primary qHTS | Vaccinia virus mCherry reporter infection, fluorescence; about a quarter of the inactives have no number | Potency, µM (titrated, usually from 36.5 µM), for the others: top-dose activity change, negative = inhibition, actives largely listed as inhibitors | actives 0.63% (n = 310,000); active = well fitted inhibition curve with a large enough effect; inconclusive = small, poorly fitted or top-dose-only effect; inactive = no such curve, though single readings can be large or run the other way; tested in A549 cells; also: nearly all actives have a fitted effect of over 35% in size; inactives centre near -10
# * hit, by the source's call; i = inactive; u = inconclusive; x = no result given. % is scaled to controls: 0 for no effect and ±100 for the full control effect; potency is read from the fitted curve at half-maximal effect. Compounds as they come, and some 0.87% of all compounds hit somewhere here.
Compound | Vaccinia Venus | VACV mCherry inh
COc1ccc(OC)c(NC(=O)c2sc3nc(C)cc(C)c3c2N)c1 | -21% | i
COc1cc(C(=O)Oc2cccc(/C=N/NC(=O)c3cccnc3)c2)cc(OC)c1OC | -11% | u
CC#CCN1c2ccccc2[C@]23C[C@@H](C(=O)OC)N(C(=O)NCCBr)C2=NC(C(=O)OC)=C(C(=O)OC)[C@H]13 | 0% | i
CCC(=O)N1CCCc2cc(S(=O)(=O)N3CCN(c4ccccc4F)CC3)ccc21 | -23% | i
Cc1n[nH]c(=O)n(N=Cc2c[nH]c3ccccc23)c1=O | -11% | i
Cc1ccc(S(=O)(=O)N(C)CC(=O)OCC(=O)NC(=O)Nc2ccc3c(c2)OCCO3)cc1 | -6% | -11%
CCOC(=O)C/C(=N\Nc1ncnc2ccccc12)c1ccccc1 | -5% | -17%
COC(=O)Cn1c(=NC(=O)c2ccc(S(=O)(=O)N3CCOCC3)cc2)sc2cc(S(N)(=O)=O)ccc21 | -12% | i
CCOc1ccc(NC(=O)CCC(=O)NNS(=O)(=O)c2ccccc2[N+](=O)[O-])cc1 | -13% | -15%
CCC(C(=O)NCc1ccco1)N(C(=O)CNS(=O)(=O)c1ccccc1)c1ccccc1C (stereo not given) | -11% | i
COc1cccc(CNS(=O)(=O)c2cc3c4c(c2)CCN4C(=O)CC3)c1 | -6% | -13%
N/C(Cn1cncn1)=N\NC(=O)c1ccc(Cl)cc1Cl | -3% | -5%
NC(COCc1ccccc1)c1csc(Nc2ncccn2)n1 (stereo not given) | -11% | i
CCc1nc2ccc(C(=O)NC3CCN(Cc4ccccc4)CC3)cn2c1N(CC)Cc1cccc(Br)c1 | u | u
NNC(=O)c1cnn(-c2ccccc2)c1C(F)(F)F | -2% | i
COc1ccc(S(=O)(=O)N2CCC(C(=O)Oc3ccc(C)cc3)CC2)cc1OC | -7% | i
CC(=O)Nc1cccc2c1C(=O)N(c1cccc(C)c1)C2=O | 2% | 0%
O=C(c1cc(-c2ccc(Cl)cc2)on1)N1CCCC1 | -7% | -24%
CC(=O)c1cccc(CN2CCCC(CCC(=O)NCc3ccc(C)o3)C2)c1 (stereo not given) | 7% | -11%
CN(C)C(CNC(=O)c1cccc(S(=O)(=O)NCc2ccccc2)c1)c1ccccc1 (stereo not given) | -10% | -7%
COc1cnc(-c2ccccn2)nc1Sc1ccccc1 | -27% | u
CC(C)CN1C(=O)NC(NC(=O)c2ccco2)(C(F)(F)F)C1=O (stereo not given) | -8% | -12%
C=CCN1C(=O)C(O)(CC(=O)c2c(C)n[nH]c2C)c2cc(Br)ccc21 (stereo not given) | -13% | -17%
FC(F)(Cl)c1nnc2ccc(Cl)nn12 | -21% | -15%
O=S(=O)(c1cccc2nsnc12)N1CCN(Cc2ccccc2)CC1 | -7% | -17%
COc1ccc(COC(=O)CCCN=C2NS(=O)(=O)c3ccccc32)cc1F | -23% | -16%
Cn1c(=O)[nH]c(=O)c2c1nc(NCCCn1ccnc1)n2Cc1ccc(F)cc1 | u | u
N#CCN1CCC2(O)CCCCC2C1c1ccc2c(c1)OCO2 (stereo not given) | -7% | i
C=CCc1cccc2cc(C(=O)Nc3ccc(S(=O)(=O)Nc4nnc(CC)s4)cc3)c(=O)oc12 | -4% | i
Cc1cc(SCc2cc(=O)n3ccsc3n2)nc2ccccc12 | -20% | -27%
Cc1ncsc1CCC(=O)N1CCCC(C(=O)c2ccc3c(c2)OCO3)C1 (stereo not given) | -12% | -10%
CCc1occc(=O)c1Oc1cc(NN2CCCCC2)c([N+](=O)[O-])cc1[N+](=O)[O-] | -24% | -11%
Cc1cc(-c2ccc(S(=O)(=O)NCc3ccccc3Cl)s2)on1 | -16% | i
Cc1nn(C)c(C(=O)N/N=C/c2ccccc2)c1[N+](=O)[O-] | 0% | -7%
Cc1ccc(NC(=O)c2snnc2C)cc1Cl | 3% | i
COC(=O)c1ccc2c(c1)S(=O)(=O)NC(=NCc1ccco1)S2 | -2% | x
CC(C)C(N)C(=O)NC(Cc1c[nH]c2ccccc12)C(=O)O (stereo not given) | -14% | -21%
O=C(Cn1nc(-c2ccccc2)ccc1=O)NCc1ccc(F)cc1 | -13% | i
C[C@@]12C(=O)N(Cc3ccc(Cl)cc3)CC(=O)N1[C@H]1c3ccccc3OC[C@@H]1[C@@H]2c1ccccc1 | -28% | -7%
Cc1ccc(-c2cc(NC(=O)COc3ccc(Cl)c(C)c3)on2)cc1 | -17% | i
COc1ccc(OC)c(NC(=O)N2CCCc3ccccc32)c1 | -2% | -11%
Cc1ccc(CNC(=O)C2CCC(=O)N2Cc2ccc(F)cc2)cc1 (stereo not given) | -12% | -2%
CC(C)C[C@H](NC(=O)[C@@H](Cc1ccccc1)n1c(=O)[nH]c2ccccc2c1=O)C(=O)N[C@@H](Cc1ccccc1)C(=O)O | -2% | -4%
CCOc1ccc(OCCCCNC(C)(C)C)cc1 | 0% | i
CSc1ccccc1C(=O)Nc1ccccc1C(=O)NC(C)C | -8% | i

# By substructure, the compounds so far containing an aryl thioether with sulfur outside any ring (3)
Compound | Vaccinia Venus | VACV mCherry inh
COc1cnc(-c2ccccn2)nc1Sc1ccccc1 | -27% | u
Cc1cc(SCc2cc(=O)n3ccsc3n2)nc2ccccc12 | -20% | -27%
CSc1ccccc1C(=O)Nc1ccccc1C(=O)NC(C)C | -8% | i

# Next section:
Structure,Vaccinia Venus,VACV mCherry inh
O=C(Nc1ccc(S(=O)(=O)Nc2nccs2)cc1)/C(=C/c1ccccc1Cl)NC(=O)c1ccccc1,-4%,-12%
Cc1onc(-c2ccccc2)c1CNS(=O)(=O)c1cccc(Cl)c1,-6%,-19%
CN(C)c1ccc(C=Nc2cncc3ccccc23)cc1,-5%,-13%
Clc1cccc(Cl)c1CSc1nnc([C@@H]2CCCN2)o1,-2%,-5%
CCOc1ccc(NC(=O)CCc2c(C)nc3c(-c4ccccc4)c(C)nn3c2C)cc1,-9%,-4%
CC(=O)c1ccc2c(c1)c1ccccc1n2CC(C)C,-25%,-28%
O=C(CN1C(=O)COc2ccc(S(=O)(=O)N3CCOCC3)cc21)NCc1ccc(Cl)cc1,-4%,-7%
C1=C(c2ccccc2)Nc2nnnn2C1,4%,4%
N/C(=N\OC(=O)c1ccccc1[N+](=O)[O-])c1ccccn1,-2%,-7%
O=C(CN1CCOCC1)Nc1nc(-c2ccc(Cl)cc2)cs1,-17%,i
O=C(Cc1cccc2ccccc12)Nc1ccc2c(c1)C(=O)NC2=O,2%,-1%
C=CCN(c1ccc(C(N)=O)cc1)S(C)(=O)=O,-9%,x
CCN(C(=O)c1nn(-c2ccc(C)cc2)c(=O)c2c1c1ccccc1n2C)c1ccc(F)cc1,-9%,-7%
O=C(c1ccccc1)c1ccc[nH]1,-7%,-12%
C=CCN=C(NC#N)SCc1ccccc1Cl,u,x
CCCCCCC(NC(=O)c1ccc(C)cc1)C(=O)O (stereo not given),-13%,i
Cn1c(Cn2c(=O)sc3ccccc32)nnc1SCC(N)=O,0%,1%
CCCNC(=O)C1(C)CCCN(C(=O)c2cccc(OC(F)(F)F)c2)C1 (stereo not given),-4%,6%
Cc1ccc(S(=O)(=O)N(Cc2nc(-c3cccc(C)c3)no2)C2CCCCC2)cc1,-21%,-18%
CCCC(=O)Nc1ccc(Br)c(Cl)c1,-11%,x
CCc1c(C)nc2ncnn2c1N1CCC(C(=O)Nc2ccccc2)CC1,-20%,i
CC(=O)N1CCN(C(=O)c2ccc(OC3CCN(Cc4ccccn4)CC3)cc2)CC1,-3%,i
COc1ccc(C(=O)NNC2CC(=O)N(Cc3ccc(Cl)cc3)C2=O)cc1OC (stereo not given),-3%,i
Cc1nc2ccc(Cl)cc2c(-c2ccccc2F)c1CC(=O)O,-14%,i
CCCCn1nnnc1C(c1ccccc1)N1CCN(c2ncc(C(F)(F)F)cc2Cl)CC1 (stereo not given),-5%,-15%
Cn1c(SCC(=O)N2CCc3ccccc32)nnc1-c1ccc(S(=O)(=O)N2CCCC2)cc1,-14%,-13%
O=C(NCc1ccc2c(c1)OCO2)c1ccc(COc2cccc(Cl)c2)o1,-15%,-25%
Cc1cc(F)ccc1-c1cc(C(=O)NC2CCCCC2)[nH]n1,-2%,-11%
O=C(c1ccc2nc3ccc(Cl)cc3c(=O)n2c1)N1CCOCC1,-8%,-11%
COc1ccc(NC(=O)c2cc3c([nH]c4ccccc43)c(C)n2)cc1,-8%,i
COc1ccc(/C=N/Nc2nc(Nc3ccccc3)nc(N3CCCC3)n2)cc1[N+](=O)[O-],u,-15%
COc1ccc(N2CCN(C(=O)CN3C(=O)COc4ccccc43)CC2)cc1,-3%,-8%
COc1cccc(OCc2ccc(C(=O)NCC3CCCO3)cc2)c1 (stereo not given),-10%,-23%
O=C(c1ccsc1)N1CCCC(N2CCN(c3cccc(C(F)(F)F)c3)CC2)C1 (stereo not given),-14%,-7%
CC(=O)c1sc(NC(=O)CS(=O)(=O)c2ccccc2)nc1-c1ccccc1,-3%,-16%
CC(C)c1cccc(-c2ccc3c(c2)S(=O)(=O)c2cccc(C(=O)O)c2C3=O)c1,-2%,-25%
O=C(Nc1ccccc1)c1nc[nH]c1C(=O)NCCN(CCNC(=O)c1[nH]cnc1C(=O)Nc1ccccc1)CCNC(=O)c1[nH]cnc1C(=O)Nc1ccccc1,u,-1%
CCC(OC(=O)c1nsc(Cl)c1Cl)C(=O)NCC1CCCO1 (stereo not given),5%,i
O=C(N/N=C/c1ccccc1OCc1ccccc1)c1cccs1,-18%,-1%
Cc1ccsc1C(=O)N(Cc1cc2cc3c(cc2nc1N1CCOCC1)CCC3)CC1CCCO1 (stereo not given),11%,-4%

# Complete entries, quoted from the list:
# Listed for CC(=O)c1sc(NC(=O)CS(=O)(=O)c2ccccc2)nc1-c1ccccc1 → Vaccinia Venus: -3%; VACV mCherry inh: -16%
# Listed for COc1cccc(OCc2ccc(C(=O)NCC3CCCO3)cc2)c1 (stereo not given) → Vaccinia Venus: -10%; VACV mCherry inh: -23%

# (cont.)
Structure,Vaccinia Venus,VACV mCherry inh
CCN(CC)S(=O)(=O)c1ccc(C(=O)NC2CC(=O)N(c3ccc(OC)c(OC)c3)C2)cc1 (stereo not given),-5%,-4%
Cc1nc(NC(=O)CSc2ccccc2N)sc1C,0%,i
COc1cccc(N2CCN(C(=O)c3ccc4ccccc4c3)CC2)c1,-26%,u
CCOc1ccc(Nc2cc(C)nc(-n3nc(C)cc3C)n2)cc1,16µM*,u
Cn1cccc1C(C#N)c1ccccc1C#N (stereo not given),-9%,u
O=C(Nc1cccc(Oc2ccc3c(c2)C(=O)NC3=O)c1)c1cccs1,-9%,i
O=C(NC1=NCCS1)C1CC(=O)N(c2ccc(F)cc2)C1 (stereo not given),3%,-8%
CCNC(=O)C1CCCN1C(=O)C(CCCN=C(N)N)NC(=O)C(CC(C)C)NC(=O)C(Cc1cn(Cc2ccccc2)cn1)NC(=O)C(Cc1ccc(O)cc1)NC(=O)C(CO)NC(=O)C(Cc1c[nH]c2ccccc12)NC(=O)C(Cc1cnc[nH]1)NC(=O)C1CCC(=O)N1 (stereo not given),-5%,i
CCOC(=O)C1=C(C)N(C[C@@H]2CC[C@@H](Cc3ccc(-c4ccccc4)cc3)O2)C(=O)NC1c1ccc(C(F)(F)F)cc1 (stereo not given in full),-29%,i
CCO[C@H]1OC(C(=O)N2CCN(Cc3ccccc3)CC2)=C[C@@H](c2coc3ccccc3c2=O)[C@@H]1CCCO,-22%,i
CSCCC(NS(=O)(=O)c1cccc(C(F)(F)F)c1)C(=O)N(C)CCOc1ccc(Cl)cc1 (stereo not given),u,u
COc1ccccc1NC(=O)Cn1c(=O)n(CCc2ccccc2)c(=O)c2c3c(sc21)CN(C(C)=O)CC3,-7%,-19%
Cc1cc(C)c(N)c(C(=O)O)c1,-8%,-1%
CCN(Cc1ccccc1)C(=O)CCc1nc(CN2CCN(C(=O)c3ccc([N+](=O)[O-])cc3)CC2)no1,-13%,-26%
Cc1ccc(C(=O)c2ccccc2C(=O)O)c(O)c1,-24%,-12%
COc1ccc(C2=NN(C(=O)CSc3nc4ccccc4s3)C(c3ccc(OC)cc3)C2)cc1 (stereo not given),-18%,-7%
Cc1cc(C)c(C#N)c(SCC(=O)OC2CCCCC2)n1,-6%,-7%
CCOC(=O)C1=CN(Cc2cccc(F)c2)S(=O)(=O)N(C)C1c1cccc(OC)c1 (stereo not given),-11%,-5%
O=C(O)c1nn(Cc2nc3ccccc3o2)c(=O)c2ccccc12,-11%,i
COc1cc(C2C(C(=O)c3cccs3)=C(O)C(=O)N2Cc2ccco2)cc(OC)c1OC (stereo not given),-10%,i

# Two entries from above in a different format:
# Below each compound: Vaccinia Venus	VACV mCherry inh
- Cc1cc(C)c(N)c(C(=O)O)c1
→ -8%	-1%
- CCN(Cc1ccccc1)C(=O)CCc1nc(CN2CCN(C(=O)c3ccc([N+](=O)[O-])cc3)CC2)no1
→ -13%	-26%
